Assay outcomes (PubChem)
T cruzi inh – blocks replication of Trypanosoma cruzi; T. cruzi beta-gal in NIH3T3, luminescence, 90 h; inhibition, % (test concentration not listed); 300,000 tested, 1.4% active; AID 1885;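 active means mean inhibition across valid replicates above about 55%, limit read from the data; inconclusive means mean below that limit but half or more replicates reach it; inactive means mean below it, under half of replicates reach it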;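 further: signal also drops with host cell toxicity which is not excluded here; 0% = plate median of DMSO wells and 100% = zero luminescence signal; higher percent means less beta-gal luminescence so fewer parasites; stock transfer was 50 nL into about 50 µL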
RanGTP-Impb inh – inhibitors of RanGTP-importin-beta interaction, primary screen, biochemical, FRET, CFP-Ran, YFP-importin-beta, homogeneous. 300,000 tested, 1.1% active. inhibition, % (test concentration not listed). cell-free CFP-Ran/YFP-importin-beta FRET ratio. AID 2216;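 active means most replicates above 15%; inconclusive means exactly half above 15%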;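 further: 0% = DMSO wells and 100% = Ran loaded with GDP instead of GTP; wells of about 40 µL received 100 nL stock; the first replicate is given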
A1 inh – inhibitors of the anti-apoptotic protein A1, read as caspase activation; AID 2462; 330,000 tested, 0.066% active; caspase activation, % (no concentration beside the values); MEF A1-2A-BIM cells, Caspase-Glo 3/7 luminescence, 3 h; percent of clofoctol response, vehicle zero;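 active means over half of replicate activation scores above 10%, or exactly half above 10 with the replicate mean above 10; inconclusive means replicate mean below 10 yet half the replicates above 10; inactive means over half of replicates below 10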;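 further: wells of about 30 µL received 50 nL stock; many hits fall short of the cut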
AF4-AF9 inh – blocks AF4 peptide binding to human AF9. AlphaScreen, biotin-AF4 peptide binding to FLAG-AF9. inhibition, % at 10 µM. 350,000 tested, 0.47% active. P42568;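 active means every replicate reaching a set inhibition limit, whatever the replicate mean, cut at about 25% in these data; inconclusive means mean inhibition reaches that limit but some replicates miss it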;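 further: 0% = plate neutral control median and 100% = total signal loss; the record names both 10 and 1 µM as test concentration; the first replicate is given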
Target sequence (P42568 whole entry, looked up): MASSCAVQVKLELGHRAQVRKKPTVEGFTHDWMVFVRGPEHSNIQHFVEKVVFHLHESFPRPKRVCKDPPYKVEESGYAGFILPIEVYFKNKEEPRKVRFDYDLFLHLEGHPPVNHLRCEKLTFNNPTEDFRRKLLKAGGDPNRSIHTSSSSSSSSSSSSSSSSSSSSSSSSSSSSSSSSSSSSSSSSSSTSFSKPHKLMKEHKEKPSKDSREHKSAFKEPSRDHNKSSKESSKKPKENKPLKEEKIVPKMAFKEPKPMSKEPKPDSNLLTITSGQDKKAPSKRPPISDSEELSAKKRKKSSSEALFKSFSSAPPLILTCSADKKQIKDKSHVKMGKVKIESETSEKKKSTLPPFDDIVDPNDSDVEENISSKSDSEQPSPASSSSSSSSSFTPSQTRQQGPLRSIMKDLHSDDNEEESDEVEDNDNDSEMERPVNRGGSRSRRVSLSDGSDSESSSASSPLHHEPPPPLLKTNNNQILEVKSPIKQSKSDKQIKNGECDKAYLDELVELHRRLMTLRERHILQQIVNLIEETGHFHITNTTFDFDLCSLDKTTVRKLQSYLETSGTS
Calb FLC – C. albicans growth modulation with fluconazole. C. albicans CaCi-2 (fluconazole-resistant clinical isolate) + fluconazole, Alamar Blue growth, 48 h. growth inhibition, % (no concentration beside the values). 300,000 tested, 0.57% active. AID 1979;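 active means most replicates above 75%; inconclusive means exactly half above 75%; inactive means most below 75%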;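 further: all wells also contain fluconazole at 8 µg/ml as a sub-toxic cotreatment; 0% = median of DMSO wells and 100% = median of geldanamycin control wells; wells of about 8 µL received 7.5 nL stock; the first replicate is given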
Beta apoptosis – beta cell apoptosis inhibition | protection from apoptosis, % (no concentration beside the values) | INS-1E cytokine-induced death, ATP luminescence, 48 h; percent of positive-control rescue, neutral wells zero | 300,000 tested, 0.8% active;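 active means all replicates at 75% or more, or half of them and the mean; inconclusive means half reach 75% but not the mean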;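 further: 0% = cytokine-treated negative control wells and 100% = positive control rescue; higher means more ATP so stronger rescue from cytokine killing; wells of about 40 µL received 100 nL stock; the first replicate is given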
rRNA inh HTS – inhibitors of bacterial rRNA selective over humanized ribosomes; AID 720706; 350,000 tested, 1.6% active; GFP signal change (wild-type ribosome), % (no concentration beside the values); E. coli WT GFP vs humanized-ribosome RFP mutants, fluorescence, 24 h; hits give low values; DMSO median 0, no signal -100;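 active means significant combined selectivity score with lowered wild-type GFP, culture density cut under 30%, mutant RFP and density less affected; inactive means any of these conditions unmet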; further: one replicate is shown; some compounds called inactive have numbers as strong as hits
Vif A3G – HIV-1 Vif–A3G interaction blockers – biochemical, TR-FRET, GST-Vif 1-94, biotin-A3G peptide, dose response retest, primary screen (AID 1117319); TR-FRET GST-Vif / biotin-A3G peptide binding; higher % means a stronger effect; test concentration not given here; strong numbers were not always called active; inhibition, %, or IC50 in µM where a hit was titrated; 260,000 tested, 0.57% active;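 active means above the screen mean plus three standard deviations and confirmed in dose response; inconclusive means results disagree or hit not tested in dose response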;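 further: Vif residues 1-94 fused to GST binding biotinylated APOBEC3G peptide 110-148; 0% = full assay without inhibitor and 100% = GST in place of GST-Vif; retest series ran down from 100 µM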
rRNA inh HTS OD600 – recorded beside rRNA inh HTS, whose call it bears; OD600 change, %; measured here: OD600 growth;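 optical density of the mix in the first replicate; 0 = DMSO median and -100 = no signal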
rRNA inh HTS RFP – also measured in rRNA inh HTS; calls as there; RFP signal change, %; measured here: RFP humanized mutant strains;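 first replicate; 0 = DMSO median and -100 = no signal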
Starred values were filed as active, the others as inactive; u = inconclusive; x = no result given; & = joins results of further samples. These rows are one share of the data; count on the stated rates, not on these rows.

SMILES	T cruzi inh	RanGTP-Impb inh	A1 inh	AF4-AF9 inh	Calb FLC	Beta apoptosis	rRNA inh HTS	rRNA inh HTS OD600	rRNA inh HTS RFP	Vif A3G
CC(C)C(NC(=O)c1ccc(F)cc1)C(=O)NCC1CCCO1 (stereo unspecified)	-12.3	-2.0	-0.4	-0.2	2.7	-2.3	1.3	8.5	4.8	-1.7%
Cc1cc(C)nc(SCc2ccc(C(=O)O)o2)n1	-8.6	1.2	-1.6	x	5.7	-6.5	x	x	x	13.0%
Cc1ccc(SCCN2CCC(C)CCC2=O)cc1 (stereo unspecified)	-19.1	u	-0.5	-17.0	-5.3	-10.4	-8.9	-7.2	-8.0	x
CCOc1ccc(NC(=O)N(C2CCCCC2)C2CCN(C(C)=O)CC2)cc1	8.2	-0.6	1.3	0.7	0.9	-0.9	14.9	0.6	-4.8	x
C/C(Cl)=C/CN1C(=O)C2C3C=CC(C3)C2C1=O (stereo unspecified)	-6.7	2.6	-0.9	x	2.2	x	x	x	x	1.3%
Cc1ccc(C2=[N+]([O-])C3(CCCCC/C3=N\NC(N)=S)N(O)C2(C)C)o1 (stereo unspecified)	-36.4	-2.4	0.5	x	x	-1.8	x	x	x	0.2%
COCCCNC(=O)c1cccc(C(=O)NCCCOC)c1	-10.2	-1.6	0.8	x	-4.4	1.2	x	x	x	2.6%
Cc1cc(C)c2c(N)c(C(=O)c3cccc(Cl)c3)sc2n1	37.8	2.4	-0.2	-0.2	-9.5	5.2	11.6	10.5	7.0	x
CCC(NC(=O)c1cc(COc2ccc(OC)cc2Cl)on1)c1ccncc1 (stereo unspecified)	8.0	u	-0.3	-2.7	0.4	-3.5	-16.1	-22.6	-3.0	6.7%
O=C(Cc1ccccc1)N/N=C/c1cc(Br)cc(Br)c1O	25.8	9.7	1.2	-1.6	-6.2	72.6	-1.2	14.4	5.1	-12.3%
Cc1cc(N2CCCC2)nc(SCC(=O)c2ccccc2)n1	18.0	-1.7	0.7	x	-6.8	6.2	x	x	x	x
NC(=O)C(=O)N/N=C/c1c[nH]c2ccc(Br)cc12	11.2	3.4	0.4	-1.3	-1.3	-8.1	-1.1	-3.5	-2.8	u
COc1ccc(C(c2nnnn2CC2CCCO2)N2CCN(c3cccc(C)c3C)CC2)cc1 (stereo unspecified)	-2.9	0.7	0.6	x	-5.1	-9.6	x	x	x	-0.2%&-4.4%
Cc1cccc(C)c1NC(=O)C(=O)NCC1CCCN1S(=O)(=O)c1ccccc1 (stereo unspecified)	15.4	3.3	0.6	6.5	0.9	-0.4	-0.6	-3.3	3.2	2.8%
N#CC(C#N)=NNc1ccc(S(=O)(=O)N2CCCC2)cc1	3.3	-1.5	1.6	x	2.9	-8.6	x	x	x	-1.9%
CN(C(=O)COC(=O)CN1C(=O)c2ccccc2C1=O)c1c(N)n(Cc2ccccc2)c(=O)[nH]c1=O	-14.6	7.8	-0.2	-9.2	3.5	-24.1	2.5	0.5	5.0	x
CCCOc1ccc(C(=O)NNC(=S)NC(=O)c2cc(-c3ccccc3)nc3ccccc23)cc1	-4.6	u	-1.0	x	-1.1	-2.8	x	x	x	10.9%
CCOc1ccc(-c2nc(N)ncc2Oc2cccc(OC)c2)c(O)c1	26.5	u	1.0	x	-4.0	-17.7	x	x	x	-26.0%
Cc1ccc(OC(=O)C2CSC3(C)CCC(=O)N23)c(Br)c1 (stereo unspecified)	-4.5	2.8	0.9	1.2	3.7	x	-3.7	-10.6	1.1	3.0%
Cc1onc(-c2ccccc2)c1C(=O)Nc1ccc2c(c1)OCO2	3.3	-6.7	-0.4	x	28.2	x	x	x	x	15.2%
C=CCSC1=C(C#N)C(c2ccc(OCC)cc2)CC(=O)N1 (stereo unspecified)	-2.4	3.3	0.8	1.7	1.9	-10.9	-5.1	-3.7	1.4	4.5%
N/C(=N\c1nc(CSc2ccccn2)cc(=O)[nH]1)Nc1ccc(Cl)cc1Cl	1.8	8.1	0.8	-1.7	2.5	5.2	10.2	5.6	3.0	-7.4%
Cc1cc2n(n1)SC(Nc1cc(Cl)ccc1Cl)N2 (stereo unspecified)	26.7	-2.1	-0.7	x	u	2.2	x	x	x	15.9%
Oc1c(C(Nc2nccs2)c2ccc(C(F)(F)F)cc2)ccc2cccnc12 (stereo unspecified)	51.7	u	x	-28.5	102.5*	x	16.1	2.5	0.6	6.6%
CCn1c(=O)cc(OCC(=O)NCCCN2CC(C)CC(C)C2)c2ccccc21 (stereo unspecified)	12.3	0.2	0.5	x	8.7	-8.9	x	x	x	0.3%&-7.4%
COc1ccc(-c2oc3cccnc3c2C#CCO)cc1	-10.5	5.1	0.5	x	3.4	8.0	x	x	x	x
Cc1cc([N+](=O)[O-])nn1CCCC(=O)N1CCN(c2ccccc2)CC1	-2.5	-0.2	0.5	-0.2	9.3	-3.7	3.9	1.1	-0.7	x
CC(C)OC(=O)C(C)(C)Oc1ccc(C(=O)c2ccc(Cl)cc2)cc1	20.8	-2.5	-0.2	-7.6	x	5.6	-4.2	-4.4	-0.6	u
Cc1ccc(NC(=O)c2ccc3nsnc3c2)c(C)c1	-9.4	6.8	1.8	-8.0	9.4	-5.4	14.6	12.2	-1.5	3.5%
COc1ccc(OC)c(N(CC(=O)N2CCCC2)S(C)(=O)=O)c1	1.0	u	1.3	-0.5	-14.8	-7.7	3.7	-2.4	1.7	3.4%
C/C(Cc1ccccc1)=N\NC(=O)CNC(=O)COc1cccc(C)c1	2.2	-4.1	-0.3	-5.2	11.8	-10.9	5.0	9.5	0.9	-6.3%
O=C(NCCc1c[nH]c2ccccc12)C1CCN(S(=O)(=O)c2ccc(F)cc2)CC1	7.0	-3.7	1.0	-0.2	-6.2	0.7	-5.2	5.8	8.1	-3.8%
CCCNC(=O)C(Sc1ccccc1)c1ccccc1 (stereo unspecified)	-6.4	u	0.4	8.1	-3.9	3.9	-2.8	-5.5	0.3	-4.7%
Cc1cccc(C)c1NC(=O)CSc1nnc(-c2ccoc2C)n1CCc1ccccc1	4.0	1.0	0.2	x	-5.0	-1.8	x	x	x	3.2%
Nc1nc(SCC(=O)N2CCN(c3ccccc3)CC2)n[nH]1	-12.7	-1.7	-0.2	-1.2	1.0	-23.3	15.2	26.0	3.2	11.9%
COc1ccc(-c2cn3cccnc3n2)cc1NC(=O)C1CCCC1	-5.6	4.6	-0.8	x	3.5	-1.1	x	x	x	-4.5%
CCOC(=O)C1=C(C)NC2=C(C(=O)c3ccccc32)C1c1cccnc1 (stereo unspecified)	16.9	0.8	-0.3	x	-6.0	3.4	x	x	x	7.4%
CCCC(CCC)C(=O)NNc1cc(=O)c2c(=O)n(C)c(=O)n(C)c2[nH]1	-5.6	-1.3	-0.4	x	-13.3	-3.4	x	x	x	3.8%
Cc1cccc(N2N=C(C(=O)OCC(=O)c3ccccc3)CCC2=O)c1	x	x	0.2	-0.4	x	-5.2	-1.4	7.7	1.2	-5.7%
Cc1nc(SCC(=O)O)c(C#N)c2c1CCCC2	-7.2	0.8	0.0	3.2	6.7	2.5	-3.3	-6.9	0.5	u
O=C(COc1cccnc1[N+](=O)[O-])N1N=C(c2ccc(Cl)cc2)CC1c1ccco1 (stereo unspecified)	56.5*	-1.6	-0.1	5.8	-6.8	3.7	-19.7*	-15.9*	1.7*	-13.5%
C#CCNc1c2c(nc3nnnn13)CCCC2	-13.3	2.2	-0.5	-0.5	-7.1	-14.0	5.0	2.7	-2.4	-25.7%
COc1ccc(-c2cc(C(=O)Nc3ccccc3O)c3ccccc3n2)cc1OC	-23.1	4.8	-0.7	0.0	28.8	16.5	-10.7	-18.2	-5.8	3.7%
Cc1ccc2cc(CN(Cc3ccc4c(c3)OCO4)Cc3nnnn3Cc3ccco3)c(=O)[nH]c2c1C	40.9	3.6	0.7	x	11.3	3.7	x	x	x	10.6%&-12.9%
O=C(c1cccc([N+](=O)[O-])c1)n1nc(-c2ccccc2)nc1NCc1ccccc1	-9.4	2.3	0.6	x	0.0	3.5	x	x	x	11.3%
Cc1c(C(=O)N2c3ccccc3CC2C)oc2ccccc12 (stereo unspecified)	6.6	0.2	-5.1	-3.1	2.2	11.9	x	x	x	-3.8%
CN(Cc1cccs1)C(=O)CSc1nnnn1C	-11.7	3.4	0.5	x	-8.2	2.1	x	x	x	-2.8%
CCCOc1ccc(/C=N/NC(=O)CSCc2ccc([N+](=O)[O-])cc2)cc1OCC	22.6	4.2	-1.5	-3.6	-12.3	-6.0	2.2	7.1	6.4	x
COc1cc2c(cc1OC)CN(S(=O)(=O)c1ccccc1F)CC2	4.4	-1.6	-0.2	1.3	15.1	4.8	-4.8	-9.3	-0.1	-9.4%
O=C(NCC(=O)N(Cc1ccc(F)cc1)C(C(=O)NC1CCCC1)c1ccco1)c1ccco1 (stereo unspecified)	-1.9	-2.3	-0.7	x	-5.4	-5.5	x	x	x	1.6%
CCOc1cnn(-c2cc(Oc3ccc(C)cc3)ncn2)c(=O)c1Cl	8.9	-2.2	1.1	x	-5.2	-5.4	x	x	x	4.9%
O=C(O)c1cc(S(=O)(=O)NC2CCCc3ccccc32)ccc1O (stereo unspecified)	-4.8	3.4	-0.5	-4.0	-3.6	-7.2	-3.6	-3.5	-2.5	x
Cc1nc(CSc2ccc(Br)cc2)cs1	-6.8	-2.1	-5.1	-2.5	-3.3	-12.3	-9.6	-4.6	2.5	x
CC(C)(C)OC(=O)NC1CC2CCCC(C1)N2Cc1ccccc1 (stereo unspecified)	8.9	-1.8	x	-9.3	-5.0	x	-5.2	-4.0	-3.7	x
Cc1cc(NS(=O)(=O)c2ccc(NC(=O)Cc3ccc([N+](=O)[O-])cc3)cc2)nc(C)n1	x	x	1.3	1.6	x	-0.4	-4.7	9.7	-2.2	-9.5%
O=C(C1CCN(S(=O)(=O)c2cccs2)CC1)N1CCN(Cc2ccccc2)CC1	-0.1	-0.8	-0.8	0.1	-0.9	-3.4	8.9	0.6	1.3	-7.4%
Cc1ccc(O)c(Nc2ncnc3ccccc23)c1	-6.2	0.8	0.7	-6.4	7.1	0.1	0.8	-5.4	-7.6	-16.4%
Cc1nn2c(-c3ccccc3)ccnc2c1Br	4.0	-1.0	-0.1	1.6	-9.4	-15.2	0.2	-7.1	-1.7	-5.9%
CCOC(=O)C1CCN(C(=O)COc2cc(C)c(Br)c(C)c2)CC1	-5.0	4.6	1.4	x	1.0	-2.0	-41.9	-68.1	-8.2	29.6%
